# Assay outcomes deposited in PubChem by ICCB-Longwood Screening Facility, Harvard Medical School.
# Mtb MenB inh: blocks the Mycobacterium tuberculosis MenB enzyme | P9WNP5 | MenB enzyme assay, absorbance read-out; some hits fall short of the stated cut | inhibition, %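 (about 12 µg/mL by stock and volumes)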 | 100,000 tested, 0.43% active | AID 540299;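 active means mean of two replicates above 30%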;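 further: 0% = no compound and 100% = wells with inactive enzyme; the first replicate is given; strong numbers were not always called active; inactives centre near -10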
# Target sequence (P9WNP5 whole entry, looked up): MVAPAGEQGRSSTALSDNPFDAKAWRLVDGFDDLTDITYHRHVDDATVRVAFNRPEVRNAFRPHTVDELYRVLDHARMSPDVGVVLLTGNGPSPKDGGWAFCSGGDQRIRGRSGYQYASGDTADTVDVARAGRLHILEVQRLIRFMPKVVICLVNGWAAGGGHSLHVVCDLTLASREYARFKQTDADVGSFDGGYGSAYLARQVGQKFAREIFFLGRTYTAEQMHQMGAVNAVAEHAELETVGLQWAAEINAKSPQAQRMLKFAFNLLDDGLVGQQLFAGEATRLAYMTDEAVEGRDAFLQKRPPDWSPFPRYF
# PV pol inh: poliovirus RNA polymerase inhibition | poliovirus polymerase elongation, fluorescence polarization; active compounds read low | % elongation, % (compound at 16.7 µg/mL) | AID 588519 | 150,000 tested, 0.66% active; in the data active means % elongation below about 90%; further: some results filed as inactive read as strong as hits
# Target sequence (P03300 1749-2209 limits assumed): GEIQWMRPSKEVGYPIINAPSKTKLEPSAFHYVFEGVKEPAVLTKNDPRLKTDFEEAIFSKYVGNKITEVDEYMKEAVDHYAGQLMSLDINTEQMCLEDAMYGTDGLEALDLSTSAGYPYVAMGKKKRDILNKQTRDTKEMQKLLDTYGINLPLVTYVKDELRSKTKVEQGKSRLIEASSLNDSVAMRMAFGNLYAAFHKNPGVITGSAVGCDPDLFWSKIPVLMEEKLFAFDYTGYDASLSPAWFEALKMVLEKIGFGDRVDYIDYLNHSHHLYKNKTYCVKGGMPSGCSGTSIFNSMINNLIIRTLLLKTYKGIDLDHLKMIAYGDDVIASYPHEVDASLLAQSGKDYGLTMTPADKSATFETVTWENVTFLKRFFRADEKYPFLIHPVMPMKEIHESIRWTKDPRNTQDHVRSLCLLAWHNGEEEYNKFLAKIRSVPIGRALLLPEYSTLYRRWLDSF
# Mtb MbtI inh: inhibitors of Mycobacterium tuberculosis siderophore enzyme MbtI. P9WFX0. purified MbtI enzyme, fluorescence intensity read-out. inhibition, %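 (about 17 µg/mL by stock and volumes)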. 100,000 tested, 0.89% active;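 active means above 50% in both replicates, above 80% if mildly self-fluorescent; inactive means the rest, strongly fluorescent compounds included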;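 further: 0% = mean of negative and 100% = mean of positive controls; one replicate is shown; some compounds called inactive have numbers as strong as hits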
# PV pol inh intensity: further read-out of PV pol inh, marked with its call; % elongation; measured here: total intensity read-out; formula for this scale not given here;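 total fluorescence in place of polarization; lower means less elongation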
# An asterisk follows results filed as active; . = not tested or not shown.
SMILES,Mtb MenB inh,PV pol inh,PV pol inh intensity,Mtb MbtI inh
O=C(O)C1C(C(=O)O)C1C(=O)O (configuration not stated),-30,100,98,4
COC(=O)c1ccc(N2C(=O)c3ccc(N)cc3C2=O)cc1,-24,102,100,-12
CC1CCCC(C)N1C(=O)COC(=O)c1ccc(NS(=O)(=O)c2ccc3c(c2)OCCO3)cc1 (configuration not stated),-7,99,107,7
O=S(=O)(c1ccc(NCCOc2ccccc2)nc1)N1CCCC1,-6,107,108,1
CC(=O)Nc1ccc(Cc2ccc(NC(C)=O)cc2)cc1,8,102,104,1
CCN(CC)C(=O)Oc1ccnc2cc(Cl)ccc12,-14,103,105,-1
C=CCn1c(-c2nonc2NC(=O)c2ccccc2Cl)nc2ccccc21,-19,105,104,53
O=C(Cn1ncc2ccccc21)N1CCc2ccccc2C1,-12,104,103,-2
Cc1nc(/N=C(/N)NC(=O)c2ccccc2)nc2ccccc12,-10,103,109,-3
COc1cc(C(CC(=O)N2CCCCC2)N2Cc3ccccc3C2=O)cc(OC)c1OC (configuration not stated),-3,104,102,-24
CCN(Cc1ccc2c(c1)OCO2)C(=O)c1cc(F)c(F)cc1Cl,-22,98,96,1
O=C(COc1ccccc1Br)Nn1c(=S)[nH]c2ccccc2c1=O,-36,105,105,-2
CCOC(=O)C1CCN(C(=O)Nc2ccccc2)CC1,9,105,101,.
N=C(N)N=Nc1ccc(NN=C(N)N)cc1,-244,99,99,38
Cn1c(SCC(=O)OCC(=O)c2ccc(Br)cc2)nc2c1c(=O)[nH]c(=O)n2C,-17,110,111,.

# 5 records drawn at random from those above, as already listed:
SMILES,Mtb MenB inh,PV pol inh,PV pol inh intensity,Mtb MbtI inh
Cn1c(SCC(=O)OCC(=O)c2ccc(Br)cc2)nc2c1c(=O)[nH]c(=O)n2C,-17,110,111,.
O=C(O)C1C(C(=O)O)C1C(=O)O (configuration not stated),-30,100,98,4
CC1CCCC(C)N1C(=O)COC(=O)c1ccc(NS(=O)(=O)c2ccc3c(c2)OCCO3)cc1 (configuration not stated),-7,99,107,7
O=C(COc1ccccc1Br)Nn1c(=S)[nH]c2ccccc2c1=O,-36,105,105,-2
Cc1nc(/N=C(/N)NC(=O)c2ccccc2)nc2ccccc12,-10,103,109,-3

# Continuation.
SMILES,Mtb MenB inh,PV pol inh,PV pol inh intensity,Mtb MbtI inh
C=CCn1c(SCC(=O)N2CCN(c3ccc(F)cc3)CC2)nnc1-c1ccco1,-9,100,103,.
CNS(=O)(=O)c1cn(CC(=O)NCc2ccccn2)cc1S(=O)(=O)NC,-3,104,104,-20
CCOC(=O)c1ccc2nc(C(F)(F)F)nc(NCCc3ccc(OC)cc3)c2c1,-54,103,109,102
Cc1n[nH]c(C)c1S(=O)(=O)Nc1ccc(S(=O)(=O)N2CCCCCC2)cc1,-3,103,105,2
O=C(CSc1nc2ccccc2[nH]1)Nc1cccc(Oc2ccccc2)c1,.,106,110,-11
O=C(OCC(=O)c1ccc[nH]1)c1ccc(CN2CCCC2=O)cc1,3,106,105,1
Cn1ncc(Br)c1C(=O)NN,-7,107,107,.
Oc1ccccc1-c1cc(C(F)(F)C(F)F)no1,15,103,102,118
Cc1cc(N)n(-c2nc3ccccc3n2Cc2ccc(C#N)cc2)n1,.,101,103,-9
O=C(Cn1c(=O)n(Cc2cccs2)c(=O)c2cccnc21)Nc1ccccc1,-16,102,102,-12
CCn1nnc2c(N3CCc4cc(OC)c(OC)cc4C3C)ncnc21 (configuration not stated),-48,105,94,57
Cn1c(=O)oc2cc(S(=O)(=O)N3CCCCC3)ccc21,-9,104,111,9
COc1cccc(C(=O)Oc2ccc3c(c2)NC(C)(C)C=C3C)c1,.,104,103,0
O=S(=O)(Nc1cc(Sc2ncn[nH]2)c(O)c2ccccc12)c1cccs1,24,103,104,-8
O=C(Nc1ccccc1)O/N=C/c1ccccc1,-3,99,101,-5
NC(Cn1ccnc1)c1ccccc1 (configuration not stated),-16,104,102,.
COc1ccccc1N1CCN(C(=S)c2ccccc2OC(F)(F)F)CC1,-11,100,108,-10
CCc1cc2c(C)cc(=O)oc2cc1OC(=O)[C@@H]1CCCN1C(=O)OC(C)(C)C,-38,98,106,-95
CCc1nnc2sc(-c3ccc(N)cc3)nn12,-2,105,105,-13
CCC(C)NC(=O)C1CCN(S(=O)(=O)c2cccc3nsnc23)CC1 (configuration not stated),-17,103,102,-5
CC1CC(NC(=S)N(C)C)CC(C)(C)C1 (configuration not stated),2,99,103,-8
Cc1cc(C(=O)COC(=O)Cc2n[nH]c(=O)c3ccccc23)c(C)n1-c1ccc2c(c1)OCO2,-3,103,106,-17
O=C1CSC(c2ccccc2)N1c1cccnc1 (configuration not stated),13,105,98,-1
COc1ccc(CCNC(=O)C(F)(F)F)cc1,-12,97,103,-7
COC(=O)C1=C(C)NC(=O)CC1c1ccccc1 (configuration not stated),-54,105,99,-6
Cc1nc2ccn(Cc3ccco3)c(=O)c2cc1C(=O)NCc1ccco1,-18,103,102,89
CCN(CC)S(=O)(=O)c1ccc(Sc2nncs2)nc1,13,102,112,100
O=C(c1cccc(Oc2ccccc2)c1)N1CCN(C2CCS(=O)(=O)C2)CC1 (configuration not stated),-18,103,95,-7
CC1(C)CC(NCC(=O)NC2CC(C)(C)NC(C)(C)C2)CC(C)(C)N1,-83,105,102,-5
O=C(COC(=O)CCC1CCCC1)Nc1ncc(C(F)(F)F)cc1Cl,.,104,108,-6
COc1ccccc1C(CNC(=O)c1cccc(-n2cnnn2)c1)N1CCCC1 (configuration not stated),-32,102,102,2
O=C1/C(=C/c2cc(Br)cs2)CCC1C1CCCC1 (configuration not stated),-11,103,107,-7
Cn1c(=O)n(C)c2cc(/C=C3/SC(=O)N(Cc4ccc(Cl)cc4)C3=O)ccc21,-15,105,102,-7
CCC1(CCc2ccncc2)C(=O)NC(=O)NC1=O,-15,101,102,-1
c1ccc(-c2nc3sc(-c4ccccc4)nc3s2)cc1,-18,101,104,-7
COc1cc(NC(=O)CN2C(=O)COc3cc(S(=O)(=O)N4CCOCC4)ccc32)cc(OC)c1,-3,105,106,0
COc1ccccc1N1CCN(C(=O)c2cnn(-c3ccc(Cl)cc3)c2C)CC1,-5,103,99,3
C=CCn1cc(Cc2cn(CC=C)nc2C)c(C)n1,9,103,106,.
CC(C)N(C(=S)Nc1cccc(C(F)(F)F)c1)C(C)c1ccccn1 (configuration not stated),-33,99,100,17
CCC(=O)N1C(C(=O)NCc2ccccc2F)CSC12CCN(C)CC2 (configuration not stated),9,102,103,-18
CC(C)NC(=S)N/N=C/c1cccc(O)c1,-7,104,110,16
CN(C)NC(=S)NC(=O)C12CC3CC(CC(C3)C1)C2,-3,108,109,6
COc1cc(C(=O)COC(=O)CSc2nc3ccccc3o2)ccc1OC(F)F,-2,109,114,12
Cc1csc(NC(=O)CSc2ccccc2)n1,-28,103,109,-7
CC(C)NS(=O)(=O)Cc1ccc(C#N)cc1,-22,99,97,10

# The final two records of the part above are carried over, then new ones follow:
SMILES,Mtb MenB inh,PV pol inh,PV pol inh intensity,Mtb MbtI inh
Cc1csc(NC(=O)CSc2ccccc2)n1,-28,103,109,-7
CC(C)NS(=O)(=O)Cc1ccc(C#N)cc1,-22,99,97,10
Nc1cc(C(F)(F)F)ccc1Sc1nc2ccccc2s1,-38,103,104,.
CCCn1c(NCc2ccc(C)o2)nc2ccccc21,.,101,102,-8
CC(=O)N/C(N)=N/c1nc2ccccc2o1,-28,105,108,14
CC(C)OC(=O)Cn1cc(/C=C2/SC(=O)NC2=O)c2ccccc21,-33,102,101,7
N#CC(C#N)=Cc1sccc1C1OCCO1,-23,98,101,6
COC(=O)CCCC[C@H]1SC[C@H]2NC(=O)N[C@]21O,4,101,103,-5
Cc1ccccc1OC(C)C(=O)O/N=C(\N)c1cccnc1 (configuration not stated),-8,100,101,-18
COC(=O)[C@H]1[C@H]2C[C@@H]3c4[nH]c5cc(OC)ccc5c4CCN3C[C@H]2C[C@@H](OC(=O)/C=C/c2cc(OC)c(OC)c(OC)c2)[C@@H]1OC,2,101,106,-120
O=C(Cn1c(NCc2ccccc2)nc2ccccc21)N1CCCC1,0,102,104,-5
Cc1ncc(CO)c(/C=N/NC(=O)c2ccc(O)cc2)c1O,-134,102,103,43
S=C(NCc1ccco1)N/N=C1\CSCc2ccccc21,-24,100,98,9
Cc1ccc2[nH]c(=O)c(CN(Cc3cccnc3)S(=O)(=O)c3ccccc3)cc2c1,4,102,102,11
O=C(NCCN1CCCC1)C1=Cc2sc3c(c2CS1)CCCC3,-6,105,98,19
O=C(CP(=O)(CO)CO)c1ccc(Cl)cc1,0,100,103,-6
COc1ccc(NC(=O)C(c2ccc(C)cc2)N(Cc2ccco2)C(=O)c2cnccn2)cc1 (configuration not stated),-10,102,102,-2

# Arranged by length of the SMILES (high to low): part of the list above
SMILES,Mtb MenB inh,PV pol inh,PV pol inh intensity,Mtb MbtI inh
COc1ccc(NC(=O)C(c2ccc(C)cc2)N(Cc2ccco2)C(=O)c2cnccn2)cc1 (configuration not stated),-10,102,102,-2
COC(=O)CCCC[C@H]1SC[C@H]2NC(=O)N[C@]21O,4,101,103,-5
S=C(NCc1ccco1)N/N=C1\CSCc2ccccc21,-24,100,98,9
CCCn1c(NCc2ccc(C)o2)nc2ccccc21,.,101,102,-8
CC(=O)N/C(N)=N/c1nc2ccccc2o1,-28,105,108,14
N#CC(C#N)=Cc1sccc1C1OCCO1,-23,98,101,6

# Carrying on.
SMILES,Mtb MenB inh,PV pol inh,PV pol inh intensity,Mtb MbtI inh
CCc1ccc(C2CC(=O)NC3=C2C(=O)CCC3)cc1 (configuration not stated),-8,104,106,7
O=c1oc(C2CC2)nc2ccccc12,6,102,106,28
Cc1ccc(NC(=O)COC(=O)CSC2CCS(=O)(=O)C2)cc1C (configuration not stated),-20,101,108,26
O=c1[nH]c2c(=O)[nH]c(=S)[nH]c2nc1/C=C(\O)c1ccccc1,-50,49,251,31
O=S(=O)(Nc1nc2ccccc2nc1OCC(F)(F)F)c1cccs1,-3,95,106,-24
CCOC(=O)CSc1nsc(SCC(=O)OCC)c1C#N,18,101,104,10
O=C(Cn1nc(Cc2ccncc2)c2ccccc2c1=O)N1CCCc2ccccc21,-15,102,107,-12
Cc1nc(SCc2c(F)c(F)c(F)c(F)c2F)c2ccccc2n1,2,103,106,-4
COc1ccc(C(=O)N/N=C2\CCc3ccccc32)cc1OC,-11,106,108,2
CC1CC(C)CN(C(=O)c2cc(-c3ccccn3)nc3ccc(S(=O)(=O)N4CCOCC4)cc23)C1 (configuration not stated),0,103,107,-8
CCn1cc(CNC(=S)NC2CCCC2)cn1,-20,100,101,-8
CSc1ccc(-c2cc(=O)c3ccccc3o2)cc1,-30,102,104,64
Cc1ccc(C)c(NC(=O)C(OC(=O)c2cccnc2Cl)c2ccccc2)c1 (configuration not stated),.,103,99,27
O=C(O)CNC(=O)c1ccc(CO)cc1,-33,99,89,-12
COc1cc(NC(=O)CCS(=O)(=O)c2ccc3c(c2)NC(=O)C(C)S3)cc(OC)c1 (configuration not stated),-25,102,101,-15
Cc1cc(NC(=O)C2CC3CCCN3C23C(=O)N(C)c2ccccc23)ccc1Br (configuration not stated),-10,99,103,26
O=C(O)C1C2CCC(C2)C1C(=O)NCc1ccco1 (configuration not stated),-48,103,98,2
Cn1cc(-c2nc3ccccc3[nH]2)c(-c2ccccc2)n1,-26,107,111,110
CCCc1cc(=O)n2[nH]c(NC(=O)CCc3ccccc3)nc2n1,-38,96,100,-2
COc1ccccc1C(O)(C(=O)NNc1cccc(Br)n1)c1ccccc1OC,-13,104,103,-14
CC(C(=O)NC(=O)NC1CCCCC1)N1CCN(S(=O)(=O)c2ccc3c(c2)OCCCO3)CC1 (configuration not stated),-9,96,98,7
COc1ccc(C)c(N2C(=O)CC(N3CCN(c4ccc(F)cc4)CC3)C2=O)c1 (configuration not stated),-26,104,99,-7
C=C(C)C1CC=C(CN2CCN(c3ccccc3)CC2)CC1 (configuration not stated),-39,100,103,10
COC(=O)CSc1nc2[nH]c(=O)cc(O)c2s1,-227,101,107,-6
OC(CNCC1COc2ccccc2O1)COc1ccccc1F (configuration not stated),-4,102,104,-15
CC(C)Cn1[nH]nnc1=S,-37,98,98,15
O=[n+]1cc(-c2ccc(F)cc2)n([O-])c2c1CCCC2,-16,101,100,14
O=C(Cn1c(=O)sc2ccccc21)OCc1ccccc1,-49,101,100,-1
CSc1nc2ccccc2c(=O)n1-c1cccnc1,-9,106,89,1
COc1ccc(C2OC(=O)C(C)(C)C(=O)C2C)cc1OC (configuration not stated),-22,103,101,-10
CCn1ncc(CN2CCN(C(=S)Nc3ccc(Br)cc3Cl)CC2)c1C,-30,102,103,2
COc1ccc(S(=O)(=O)N(CCC#N)C2CCCc3ccccc32)cc1OC (configuration not stated),-5,107,109,-4
CN(/N=C1/CCN(C2CCCCC2)C1=O)c1ccc(Cl)cc1,-12,104,97,.
Cc1cc(C#N)c(C)n1-c1ccc(Br)cc1,.,104,108,-4
Cn1c(CCc2nc3ccccc3[nH]2)nnc1SCC#N,-6,104,101,-4
O=C(CCN1CCN(c2nccc(C(F)(F)F)n2)CC1)N1CCCN(c2ccc(C(F)(F)F)cn2)CC1,9,104,105,2
CC1S/C(=N\C(=O)Nc2ccc(Cl)cc2)NC1=O (configuration not stated),-5,103,102,-5
Cc1cc(C)nc(N(C#N)CC(=O)N2CCC(C(N)=O)CC2)n1,-41,100,107,-6
O=C(NCc1csc(-c2cccs2)n1)c1ccno1,4,107,102,-1
